# INS promoter inh – TRM-6 insulin promoter activity inhibition; TRM-6 cells (human fetal islet line), insulin promoter-eGFP reporter, imaging; reporter expression induced with tamoxifen; inhibition, % at 2 µM; 0.9% of 130,000 active; AID 1273;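 active = inhibition above the mean plus 3 SD, with well images judged a real hit on visual review, cut at about 60% in these data, passing the limit was not always enough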
# PKD1 inh – blocks activity of human protein kinase D1; PKD1 kinase fluorescence polarization assay; inhibition, %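 (about 10 µM by stock and volumes)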; 0.056% of 200,000 active;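 active = inhibition of 50% or more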;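 note: controls were vehicle for no effect and a reference inhibitor for full effect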
# RGS16-Gao HTS – RGS16-Galphao interaction regulator (human); binding response (% of control), % at 10 µM; AID 1441; bead-based flow cytometry RGS16-Galphao binding, fluorescence; actives lie on both sides; 0.38% of 220,000 active;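 active = below 25% or above 175%, edge rows of some plates excepted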;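 note: Galphao activated by GDP with aluminum fluoride before binding; 100% = wells without compound and 0% = beads without RGS; some results beyond the cut were filed as inactive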
# Target sequence (O15492 whole entry, looked up): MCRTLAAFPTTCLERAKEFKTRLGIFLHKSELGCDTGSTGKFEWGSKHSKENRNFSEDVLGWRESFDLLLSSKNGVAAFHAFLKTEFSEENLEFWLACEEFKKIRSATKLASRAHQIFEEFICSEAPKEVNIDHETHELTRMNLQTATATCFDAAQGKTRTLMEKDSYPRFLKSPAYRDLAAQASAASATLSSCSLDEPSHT
# Target sequence (P09471 whole entry, looked up): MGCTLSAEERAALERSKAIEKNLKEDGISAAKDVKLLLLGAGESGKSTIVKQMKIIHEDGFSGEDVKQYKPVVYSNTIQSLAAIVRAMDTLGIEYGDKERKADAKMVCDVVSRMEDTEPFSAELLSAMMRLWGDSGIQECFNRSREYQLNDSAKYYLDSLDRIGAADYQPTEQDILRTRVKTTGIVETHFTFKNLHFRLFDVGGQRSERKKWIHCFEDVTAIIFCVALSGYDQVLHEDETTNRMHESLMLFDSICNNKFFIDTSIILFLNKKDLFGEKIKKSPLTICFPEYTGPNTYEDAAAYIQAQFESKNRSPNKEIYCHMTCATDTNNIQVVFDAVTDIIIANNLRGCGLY
# HSV augment – increases HSV replication in cells; HSV replication augmentation in cells, fold increase; maximum fold increase; 0.005% of 220,000 active; AID 1956;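 active = peak rise of 1.5-fold or more in the series; tested in PC3 cells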;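 note: first round at 10 µM; read as green reporter fluorescence; hits show the peak of a series up to 25 µM; 1 = signal of infected wells without compound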
# GALR2 ag – agonists of human galanin receptor 2 (GALR2); O43603; GALR2-expressing cells, agonist activation read-out; activation, %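 (tested at 5 µM)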; 0.48% of 140,000 active; AID 803;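 active = above mean plus 3 SD of all compounds, about 5% in these data, not always enough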;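 note: 0% = vehicle buffer wells and 100% = reference agonist at full effect; tested in CHO reporter cells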
# Target sequence (O43603 whole entry, looked up): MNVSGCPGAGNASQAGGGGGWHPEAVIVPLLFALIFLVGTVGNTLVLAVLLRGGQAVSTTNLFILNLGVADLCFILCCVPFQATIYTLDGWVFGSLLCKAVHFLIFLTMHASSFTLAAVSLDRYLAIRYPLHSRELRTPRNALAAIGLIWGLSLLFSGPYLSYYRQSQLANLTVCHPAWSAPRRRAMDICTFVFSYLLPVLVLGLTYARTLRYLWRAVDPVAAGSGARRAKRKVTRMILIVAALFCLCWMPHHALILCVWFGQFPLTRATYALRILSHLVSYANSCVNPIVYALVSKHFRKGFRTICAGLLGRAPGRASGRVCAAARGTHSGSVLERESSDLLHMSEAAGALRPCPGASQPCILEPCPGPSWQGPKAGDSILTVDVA
# INS promoter inh cell count – further read-out of INS promoter inh, marked with its call; normalized cell count, %; measured here: cell count, toxicity; reference of the scale not given here;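 cells exposed to compound for 48 h; stained nuclei by imaging scaled within each plate; lower means fewer cells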
# HSV augment primary fold – also measured in HSV augment; calls as there; fold increase; compound at 10 µM; measured here: primary screen fold increase 10 uM; tested in PC3 cells;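 GFP signal in the first replicate; 1 = infected wells without compound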
# * hit, by the source's call; i = inactive; . = not tested or not shown. Outcome played no part in choosing rows, and some 1.2% of all compounds hit somewhere here.
SMILES,INS promoter inh,INS promoter inh cell count,PKD1 inh,RGS16-Gao HTS,HSV augment,HSV augment primary fold,GALR2 ag
Cc1ccc(NC(=O)c2ccc([N+](=O)[O-])o2)cc1S(=O)(=O)N1CCOCC1,-9,40,-11,130,i,0.55,.
NC(=O)c1oc2ccccc2c1NC(=O)c1nc2ccccc2s1,-20,70,-4,95,i,0.92,-0.2
O=C(N/N=C/c1cccnc1)C1CCCN(S(=O)(=O)c2ccccc2)C1 (stereo unspecified),12,65,-11,99,i,1,-1.7
Cc1ccsc1C(=O)OCC(=O)c1cc2ccccc2o1,-45,154,-5,102,i,1,-1.2
CCN(CC)CCCN1C=C2C(=O)C(C)(OC(=O)C3CCCC3)C(=O)C=C2C=C1c1ccsc1 (stereo unspecified),.,.,.,95,i,1.3,.
Cc1ccc(OCCn2c(CCCO)nc3ccccc32)cc1,-18,62,-1,117,i,0.91,-0.5
Cc1n(C)c2cc(Cl)ccc2[n+]1Cc1ccccc1,67,34,5,93,i,0.97,.
COc1ccc(N2C(=O)CSC23C(=O)N2c4c(cccc43)C(C)=CC2(C)C)cc1 (stereo unspecified),-15,103,5,106,i,1,-1.0
COc1cccc(C2CCCN2Cc2nc(-c3cnccn3)no2)c1 (stereo unspecified),.,.,-3,101,i,0.93,.
O=C(c1cccc(Br)c1)N1CCN(c2cnn(-c3ccccc3)c(=O)c2Cl)CC1,.,.,10,103,i,1,.
COc1ccc(C2/C(=C(/O)c3ccccc3)C(=O)C(=O)N2CCN2CCOCC2)c(OC)c1 (stereo unspecified),43,147,-3,103,i,0.95,-2.3
CC(C)OC(=O)NC(Nc1ccccc1C(=O)O)(C(F)(F)F)C(F)(F)F,.,.,.,99,i,1.1,.
CCN1CCCC1CNC(=O)c1cc2c(-c3ccc(Cl)cc3)nn(C)c2s1 (stereo unspecified),.,.,-11,101,i,0.51,1.0
CCN(CCCCCN(C)C)Cc1cc2ccccc2o1,.,.,-2,94,i,0.94,-0.7
Fc1cccc(Cl)c1Cn1nnc(-c2ccc3c(c2)OCO3)n1,-25,134,-3,97,i,0.87,-1.1
CC(NC(=O)c1cccnc1)C(=O)O (stereo unspecified),.,.,-1,97,i,0.95,.
COc1cc(Cl)c(C)cc1NC(=O)CSc1nc2ccccc2o1,-29,87,-5,101,i,0.84,-1.0
Cc1ccc(SCCC(=O)NC(C(C)C)C(C)C)cc1,31,129,-20,123,i,0.95,-2.8
CC(O)CC(C(=O)NNc1ccccc1)C(=O)NNc1ccccc1 (stereo unspecified),.,.,4,103,i,1.2,.
O=C(NCC(=O)N1CCCCC1)c1ccc(Cl)cc1Cl,.,.,2,95,i,0.99,-1.1
Cc1c(NC(=O)c2cnn3c2NC(c2ccc(Br)cc2)CC3C(F)(F)F)c(=O)n(-c2ccccc2)n1C (stereo unspecified),-19,158,-11,112,i,0.82,-1.7
CCn1c(CN2CCN(C(=O)c3ccco3)CC2)nc2c1c(=O)n(C)c(=O)n2C,-45,117,-2,97,i,0.93,-2.6
COc1ccc(Nc2nc(-c3cc4cccc(OC)c4oc3=O)cs2)cc1,0,49,-4,93,i,0.92,-0.3
COC(c1ccccc1)c1nnc(CCC(=O)N(C)CCOc2ccccc2)o1 (stereo unspecified),.,.,-8,112,i,0.86,.
O=C(CN1CCCc2ccccc21)NCCc1ccc(F)cc1,-12,82,-1,101,i,1.2,.
Cc1ccc(S(=O)(=O)NCC(=O)N(CC(=O)NCC2CCCO2)Cc2ccco2)cc1 (stereo unspecified),-26,29,1,103,i,1,.
O=C(COc1c(F)c(F)cc(F)c1F)NC(=O)NC1CCCC1,.,.,-9,105,i,0.86,0.8
COCCCNC(=S)Nc1c(C)cc(C)cc1C,.,.,.,105,i,0.88,.
CC(Sc1cnc2ccccc2n1)C(=O)O (stereo unspecified),-56,116,0,97,i,0.98,5.5
CSc1nnc(-c2ccc([N+](=O)[O-])cc2)o1,.,.,-11,109,i,0.99,.
COc1ccccc1N=c1scc(-c2ccc3c(c2)NC(=O)CO3)n1CC1CCCO1 (stereo unspecified),35,124,-4,103,i,0.93,-1.1
c1ccc2sc(Sc3ncnc4sccc34)nc2c1,22,70,-8,99,i,0.65,-0.8
Cc1ccc2[nH]cc(C(=O)CN3CCN(c4ccccc4F)CC3)c2c1,-18,88,1,103,i,0.85,-3.3
COc1ccc(N(CC(=O)Nc2cc(C)ccc2C)S(=O)(=O)c2ccccc2[N+](=O)[O-])c(OC)c1,.,.,-11,97,i,0.85,.
COc1ccc(CCNC(=O)c2cc(CC(C)C)on2)cc1OC,.,.,1,109,i,0.96,-5.2
O=C(NCc1cccnc1)c1cc2ccccc2oc1=O,-29,120,-1,101,i,0.98,-2.6
COc1ccc(-c2csc3nc(C)nc(N4CCC(C)CC4)c23)cc1OC,.,.,-4,101,i,0.93,.
Cc1cc(C)c(NC(=O)C2c3ccccc3Oc3ccccc32)c(C)c1,-23,136,-1,97,i,1.1,-0.9
Cc1ccc(SCCC(=O)OCC(=O)Nc2ncc(Cl)cc2Cl)cc1,9,67,1,106,i,0.88,-3.3
O=C(CN1CCN(c2ccc(O)cc2)CC1)Nc1cc(S(=O)(=O)N2CCOCC2)ccc1Cl,-11,98,2,97,i,0.81,-0.4

# Pulled by structure from above, 5 records:
SMILES,INS promoter inh,INS promoter inh cell count,PKD1 inh,RGS16-Gao HTS,HSV augment,HSV augment primary fold,GALR2 ag
COCCCNC(=S)Nc1c(C)cc(C)cc1C,.,.,.,105,i,0.88,.
CCN1CCCC1CNC(=O)c1cc2c(-c3ccc(Cl)cc3)nn(C)c2s1 (stereo unspecified),.,.,-11,101,i,0.51,1.0
O=C(NCc1cccnc1)c1cc2ccccc2oc1=O,-29,120,-1,101,i,0.98,-2.6
Cc1c(NC(=O)c2cnn3c2NC(c2ccc(Br)cc2)CC3C(F)(F)F)c(=O)n(-c2ccccc2)n1C (stereo unspecified),-19,158,-11,112,i,0.82,-1.7
Cc1ccc(SCCC(=O)NC(C(C)C)C(C)C)cc1,31,129,-20,123,i,0.95,-2.8

# Other records.
SMILES,INS promoter inh,INS promoter inh cell count,PKD1 inh,RGS16-Gao HTS,HSV augment,HSV augment primary fold,GALR2 ag
Cc1cccc(-c2n[nH]c(=S)n2-c2ccccc2)c1[N+](=O)[O-],52,134,4,106,i,1.1,-1.2
CN(C=O)CP(=O)(O)CCN1CCCC1=O,-11,108,-3,.,.,.,0.4
CCc1ccc(NC(=O)N(Cc2ccco2)C(C)c2cccs2)cc1 (stereo unspecified),14,67,4,105,i,0.94,-1.6
COc1cc(/C=N/NC(N)=O)ccc1OC(=O)c1cccs1,18,118,3,88,i,1.2,.
Cc1c(/C=N\NC(=O)C2(C)CC2(Cl)Cl)cnn1C (stereo unspecified),43,115,3,99,i,1.1,-0.8
Cc1cccc(NC(=O)C(=O)N/N=C/c2ccncc2)c1,.,.,-8,104,i,0.82,.
Cc1nn(C)c(C)c1CN(C)S(=O)(=O)c1ccc2ccccc2c1,6,79,-11,102,i,0.94,-2.5
CCOc1nc(Nc2ccc([N+](=O)[O-])cc2)nc(NC(C)(C)C)n1,-22,97,1,102,i,0.87,-0.8
Cc1cc(C(=O)N/N=C2\CC(=O)c3ccccc32)c(C)n1-c1ccccc1,35,103,-6,98,i,1.3,.
COc1ccc(NC(=O)CCc2ccccc2)cc1NC(=O)c1ccco1,-40,110,8,102,i,0.93,-1.8
O=C(N/N=C/c1ccc(Sc2ccccn2)o1)c1cc2ccccc2cc1O,17,115,8,110,i,1.1,-3.6
COc1ccc(CCNC(=O)COC(=O)c2ccco2)cc1OC,.,.,-5,109,i,0.88,-1.3
NC(=O)C1=C[C@H](c2coc3ccccc3c2=O)C[C@H](OCCCCO)O1,.,.,1,98,i,0.95,.
COC(=O)C1CCN(C(=O)CSc2ccccc2)CC1,0,127,-6,96,i,0.89,-1.6
O=C1c2ccccc2C(=O)N1Nc1ccccc1,4,71,-4,103,.,.,-1.4
O=C(NCCN1CCOCC1)/C(=C\c1ccc(Br)cc1)NC(=O)c1cccs1,39,122,-12,124,i,0.97,-1.5
S=C(NCCc1c[nH]c2ccccc12)NC1CCCC1,.,.,1,100,i,0.78,.
CCN(CC)c1nc(C)c(C(=S)Nc2cc([N+](=O)[O-])ccc2Cl)s1,.,.,-4,103,.,.,.
CCC(c1nnnn1Cc1ccc(F)cc1)N1CCN(C2CCCCC2)CC1 (stereo unspecified),21,82,3,98,i,1,-2.1
Cc1n[nH]c(=S)n1Cc1ccccc1,.,.,.,102,i,1.1,.
O=C1c2cnc3nc(SCc4cccc(Cl)c4)nn3c2CC2c3ccccc3CCN12 (stereo unspecified),.,.,-9,105,i,1,0.6
S=C1NC[C@H](Cc2ccccc2)N1CCc1cccc2ccccc12,.,.,.,98,i,0.96,.
c1cn2cc(CSC3CCCCC3)nc2s1,-11,126,-2,99,i,0.76,0.0
CCCCN=C1NN=C(c2cc3ccccc3o2)CS1,-8,159,-19,91,i,0.95,-0.9
O=C(Nc1ccc(Cl)cc1)Nc1nc(-c2ccccc2O)cs1,.,.,.,108,i,0.91,.
Cc1ccc(-c2nc(C#N)c(NCc3ccco3)o2)cc1,-47,173,1,105,i,1,-0.9
COc1ccc(-c2nc(Cn3c(SCc4cccc(F)c4)nc4ccncc43)c(C)o2)cc1OC,.,.,1,104,i,1,1.2
CCn1c(O)c(/C=C2\C=NN=C2c2ccc(C)cc2)sc1=S,-10,131,1,103,i,1,-1.9
O=C(CN1CCCCCC1)N/N=C/c1ccc(Cl)c(Cl)c1,33,122,12,111,i,0.96,0.8
CCn1ncc(NC(=O)Nc2cccc(C(F)(F)F)c2)c1C(N)=O,16,110,5,115,i,0.84,-0.2
COc1cc(S(=O)(=O)Nc2cccc(C)c2)ccc1NC(=O)c1ccncc1,7,76,-10,58,i,1,-0.3
O=C(CCCCCn1c(=O)[nH]c2ccsc2c1=O)N1CCCCC1,-17,150,-2,103,i,0.85,-0.9
O=C1c2ccccc2C(=O)C1c1ccc2ccccc2n1,-25,62,5,104,i,0.65,0.2
S=C(NCc1ccc2c(c1)OCO2)NCc1ccc2c(c1)OCO2,-13,86,-1,107,i,0.98,-1.5
CCN(c1ccccc1)S(=O)(=O)c1ccc(Cl)c(NC(=O)COC(=O)c2cccc(OC)c2O)c1,-197,146,1,97,i,0.94,-0.9
CS(=O)(=O)N1CCC(Oc2ccccc2C(=O)NC(C2CC2)C2CC2)CC1,.,.,-2,116,i,1.1,.
COc1ccc(N(C(C)C(=O)N/N=C/c2cc(Br)c(C)o2)S(C)(=O)=O)cc1 (stereo unspecified),32,112,-8,106,i,1.1,.
O=C(Nc1cc(S(=O)(=O)N2CCOCC2)ccc1N1CCOCC1)c1cc2c(s1)CCC2,.,.,.,105,i,1,.
COc1ccc2cc(C(N)=O)c(=Nc3ccc(C)cc3)oc2c1,56,72,0,100,i,1.1,.
O=C(Nc1ccccc1)NC1(C(=O)N2CCN(C(=O)c3ccco3)CC2)CCCCC1,0,89,3,104,i,1.1,-0.2

# The list goes on; it opens with the three that closed the last part.
SMILES,INS promoter inh,INS promoter inh cell count,PKD1 inh,RGS16-Gao HTS,HSV augment,HSV augment primary fold,GALR2 ag
O=C(Nc1cc(S(=O)(=O)N2CCOCC2)ccc1N1CCOCC1)c1cc2c(s1)CCC2,.,.,.,105,i,1,.
COc1ccc2cc(C(N)=O)c(=Nc3ccc(C)cc3)oc2c1,56,72,0,100,i,1.1,.
O=C(Nc1ccccc1)NC1(C(=O)N2CCN(C(=O)c3ccco3)CC2)CCCCC1,0,89,3,104,i,1.1,-0.2
COc1ccc(-c2csc(NC(=O)c3cc(C)on3)c2C#N)cc1OC,20,99,4,98,i,0.83,-0.9
CCOC(=O)Cn1c(-c2ccccn2)nc2ccccc21,.,.,0,99,i,0.85,-3.6
Fc1ccc(-c2csc(-c3ccc(C4SCCS4)cc3)n2)cc1F,.,.,.,99,i,0.91,.
Cc1ccc(S(=O)(=O)C2(C(=O)Nc3nccs3)CC2)cc1,-57,118,0,102,i,0.94,-1.5
CCNC(=S)N1CCN(CCN=CC2=C(O)CC(C)(C)CC2=O)CC1,.,.,.,102,i,1,.
O=C1NC(=Nc2ccccc2)/C(=C/c2ccco2)S1,.,.,-7,100,i,1.9,-1.1
CCOC(=O)c1sc(NC(=O)C2CCC2)cc1C,45,175,0,112,i,0.89,.
O=C(CCC1CCCC1)Nc1ccc(OCC(=O)N2CCOCC2)cc1,-200,73,3,105,i,1.2,-1.3
O=S(=O)(c1ccc(Cl)nc1)N1CCN(Cc2ccc3c(c2)OCO3)CC1,23,125,-3,139,i,1,-0.2
CCOC(=O)c1sc(N)c(C#N)c1CSc1nnc(C2CC2)n1N,3,100,-2,104,i,0.78,-3.0

# Source: PubChem (several laboratories)
